High-throughput results deposited in PubChem by several laboratories.
Insulin prom inh – inhibitors of insulin promoter-driven GFP, primary screen, imaging, TRM-6 cells (human fetal islet line), eGFP reporter, cell count. inhibition, % at 2 µM. AID 1273, 2008. hit rate 0.9% among 130,000. reporter expression induced with tamoxifen;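 active = inhibition above the mean plus 3 SD, with well images judged a real hit on visual review, cut at about 60% in these data, passing the limit was not always enough; inconclusive = inhibition over the cutoff but images rejected on review; inactive = inhibition not above the cutoff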
PKD1 inh – inhibitors of human PKD1 kinase, biochemical, fluorescence polarization | Serine/threonine-protein kinase D1 (Homo sapiens), Q15139 | PKD1 kinase fluorescence polarization assay | AID 797, 2007 | inhibition, %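 (about 10 µM by stock and volumes)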 | hit rate 0.056% among 200,000;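 active = inhibition of 50% or more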;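 also: controls were vehicle for no effect and a reference inhibitor for full effect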
Target sequence (Q15139 whole entry, looked up): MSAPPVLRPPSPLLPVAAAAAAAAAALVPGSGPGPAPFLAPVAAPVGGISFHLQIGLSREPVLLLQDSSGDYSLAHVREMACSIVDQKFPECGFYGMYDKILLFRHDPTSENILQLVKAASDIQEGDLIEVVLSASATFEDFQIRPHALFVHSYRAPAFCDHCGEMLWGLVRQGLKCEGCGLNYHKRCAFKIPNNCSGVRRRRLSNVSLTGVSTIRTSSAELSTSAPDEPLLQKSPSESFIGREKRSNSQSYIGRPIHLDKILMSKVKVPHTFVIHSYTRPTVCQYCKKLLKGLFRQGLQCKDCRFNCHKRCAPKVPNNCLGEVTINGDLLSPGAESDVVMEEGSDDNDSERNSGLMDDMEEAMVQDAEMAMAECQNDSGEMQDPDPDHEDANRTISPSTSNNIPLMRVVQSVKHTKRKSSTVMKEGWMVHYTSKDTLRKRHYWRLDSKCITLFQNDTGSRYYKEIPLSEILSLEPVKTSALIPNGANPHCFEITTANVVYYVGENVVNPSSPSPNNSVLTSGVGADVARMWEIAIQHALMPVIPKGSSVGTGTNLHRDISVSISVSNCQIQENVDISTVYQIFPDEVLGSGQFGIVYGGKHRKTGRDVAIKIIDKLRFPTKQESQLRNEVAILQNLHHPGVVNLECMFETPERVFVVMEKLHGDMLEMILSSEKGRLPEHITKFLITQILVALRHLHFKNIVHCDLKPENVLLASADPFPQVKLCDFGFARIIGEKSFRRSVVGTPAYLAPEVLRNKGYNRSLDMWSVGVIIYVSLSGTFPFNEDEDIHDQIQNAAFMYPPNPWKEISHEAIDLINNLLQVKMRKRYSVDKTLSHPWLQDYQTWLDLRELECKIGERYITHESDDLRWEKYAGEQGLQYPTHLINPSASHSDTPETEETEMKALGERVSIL
GALR2 agonist – GALR2 receptor agonists, primary screen, cell-based; activation, %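 (tested at 5 µM)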; AID 803, 2007; Galanin receptor type 2 (Homo sapiens), O43603; hit rate 0.48% among 140,000; GALR2-expressing cells, agonist activation read-out;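 active = above mean plus 3 SD of all compounds, about 5% in these data, not always enough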;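 also: 0% = vehicle buffer wells and 100% = reference agonist at full effect; tested in CHO reporter cells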
HSV augment – enhancers of HSV replication in host cells, fold increase, host cell viability; HSV replication augmentation in cells; maximum fold increase; hit rate 0.005% among 220,000;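 active = peak rise of 1.5-fold or more in the series; inconclusive = self-fluorescent or not available for retest; tested in PC3 cells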;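 also: first round at 10 µM; read as green reporter fluorescence; hits show the peak of a series up to 25 µM; 1 = signal of infected wells without compound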
RGS16-Gao – modulators of RGS16 binding to Galphao, primary screen, biochemical, human proteins, multiplexed bead flow cytometry | bead-based flow cytometry RGS16-Galphao binding, fluorescence; actives lie on both sides | hit rate 0.38% among 220,000 | AID 1441, 2008 | Regulator of G-protein signaling 16 (Homo sapiens) + Guanine nucleotide-binding protein … | binding response (% of control), % at 10 µM;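 active = below 25% or above 175%, edge rows of some plates excepted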;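 also: Galphao activated by GDP with aluminum fluoride before binding; 100% = wells without compound and 0% = beads without RGS; some results beyond the cut were filed as inactive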
Insulin prom inh cell count – further read-out of Insulin prom inh, marked with its call; normalized cell count, %; measured here: cell count, toxicity; reference of the scale not given here;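 cells exposed to compound for 48 h; stained nuclei by imaging scaled within each plate; lower means fewer cells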
HSV augment primary fold – also measured in HSV augment; calls as there; fold increase; compound at 10 µM; measured here: primary screen fold increase 10 uM; tested in PC3 cells;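 GFP signal in the first replicate; 1 = infected wells without compound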
The depositor's hits bear a star; i = inactive; ? = inconclusive; . = no result given.

compound,HSV augment primary fold,RGS16-Gao,PKD1 inh,HSV augment,GALR2 agonist,Insulin prom inh,Insulin prom inh cell count
CCOC(=O)C1=C(C)OC(N)=C(C(=O)OCC)[C@@]12C(=O)N(CC(N)=O)c1ccccc12,1.1,107,0,i,-3.6,.,.
O=C(c1ccccc1F)c1cn(Cc2ccc(F)cc2)c2ccccc12,0.97,99,-3,i,-0.6,-20,148
CCC(CC)NC1CCCCC1OC (stereo not drawn),0.88,109,-5,i,-0.8,7,117
Cc1cc(OC(=O)N(C)C)nc(-c2ccc(C)c(Cl)c2)n1,.,102,.,?,.,.,.
COc1ccc(Cn2c(O)c(C=Nc3c(C)n(C)n(-c4ccccc4)c3=O)c(=O)[nH]c2=O)cc1,0.92,93,-5,i,-2.1,-14,106
CN1C(=O)C(=CN2CCN(C(=O)c3ccco3)CC2)C(=O)N(C)C1=S,1.1,87,-2,i,-1.3,4,94
O=c1[nH]c(=O)n(-c2ccc(Br)cc2)c(O)c1C=NC(CO)(CO)CO,1.1,102,.,i,.,.,.
CC(NCc1cccc(Cl)c1Cl)C(O)c1ccccc1 (stereo not drawn),1.2,103,-1,i,-0.2,.,.
O=C(c1cc(S(=O)(=O)N2CCC3(CC2)OCCO3)ccc1F)N1CCC2(CC1)OCCO2,1,105,1,i,.,.,.
CCC(=Nc1ccc2c(c1)CCC2)c1c(O)n(-c2ccc(OC)cc2)c(=O)[nH]c1=O,1,96,.,i,.,.,.
Cc1cc(/C=C2\C(=O)NC(=O)N(Cc3ccco3)C2=O)c(C)n1-c1ccc(C(=O)O)cc1,0.96,95,.,i,.,.,.
CC(=O)Nc1ccccc1C(=O)OCc1cccc(F)c1,1,100,4,i,.,.,.
CN1CCc2c(C#N)c(Cl)nc(Cl)c2C1,1,95,-5,i,-1.3,.,.
CN1CCN(c2cc([N+](=O)[O-])ccc2Cl)CC1,0.97,100,-2,i,.,18,92
COc1ccc(CCn2c(O)c(C=NCCCO)c(=O)[nH]c2=O)cc1OC,0.97,102,0,i,-2.3,.,.
COc1cc(CN2CCN(C(=O)COc3ccccc3)CC2)cc(OC)c1OC,1,104,-17,i,0.3,.,.
CC(=O)N1CN(C(C)=O)CN(C(C)=O)C1,0.84,103,-4,i,.,.,.
CCCC1=C(C(=O)OCC)C2(C(=O)Nc3ccccc32)C(C#N)=C(N)O1 (stereo not drawn),0.96,93,-3,i,-1.6,.,.
O=Cc1cn(Cc2ccc([N+](=O)[O-])cc2)c2ccccc12,0.97,80,0,i,-1.1,47,83
S=C1CN=C(c2ccccc2)c2cc(Cl)ccc2N1,1.1,105,-6,i,-0.1,0,70
Cc1cccc(N2C(=O)NC(=O)/C(=C/c3cc4c(cc3[N+](=O)[O-])OCO4)C2=O)c1,1.1,89,-2,i,.,5,82
CC(Cc1ccccc1)NC(=O)CN1CCCC1=O (stereo not drawn),1,81,-9,i,-1.3,-3,72
NC(=O)c1ccc(N=Cc2c(O)n(Cc3ccco3)c(=O)[nH]c2=O)cc1,1,97,.,i,.,.,.
CC(C)CCn1c(N)c(C(=O)NCc2cccs2)c2nc3ccccc3nc21,0.55,100,-3,i,2.9,44,91
CC12CCCCC1=NC(c1ccc(Br)cc1)N2O (stereo not drawn),1,99,0,i,-1.2,32,108
COc1ccccc1N1CCN(Cc2ccccc2F)CC1,0.77,107,-1,i,-0.3,-25,101
Fc1ccccc1CCNCc1ccccc1,0.83,100,-2,i,-0.6,15,133
Cc1nc2ccccc2c(=O)n1-c1ccc(F)cc1,0.85,83,-8,i,-2.1,30,82
O=C(CN1CCCC1=O)Nc1ccccc1,0.97,102,-7,i,-0.7,0,116
O=C(NCC(c1cccnc1)N1CCN(c2ccccc2)CC1)Oc1ccccc1 (stereo not drawn),0.98,99,-3,i,-0.7,38,158
C/C(=N\Nc1ccccc1)c1c(O)n(Cc2ccccc2)c(=O)[nH]c1=O,1.2,82,-2,i,-1.7,.,.
CCOC(=O)C1=C(N)Oc2cc(C)oc(=O)c2C12C(=O)N1c3c(cccc32)C(C)=CC1(C)C (stereo not drawn),1,106,1,i,-0.7,40,101
CCOC(=O)c1c(C)n(CCN2CCN(C)CC2)c2ccc(OC)cc12,0.92,106,1,i,0.8,-17,76
OC(CNC1CCCCC1)C(F)(F)F (stereo not drawn),1.2,89,14,i,.,7,143
Cc1ccc(-c2nc3ccccc3c(=O)n2-c2ccc(Br)cn2)cc1,1.2,101,1,i,.,-76,110
COc1ccc(-c2cc(=Nc3ccccc3)c3cc(C)ccc3o2)cc1,1.1,90,-5,i,-1.7,40,58
O=c1[nH]c(=O)n(Cc2ccco2)c(O)c1C=NCc1ccco1,0.89,67,-14,i,-1.8,.,.
CCCCn1c(O)c(C(CC)=NCCN2CCCCC2)c(=O)[nH]c1=O,0.82,102,-2,i,-1.1,-7,131
COc1ccccc1N=C1SCCCN1C,0.79,98,-7,i,-2.0,28,135
O=C(N/N=C/c1c(O)n(Cc2ccco2)c(=O)[nH]c1=O)c1ccccc1O,1.1,102,.,i,.,.,.
N=C1c2ccccc2CN1NC(=O)c1ccccc1,0.96,103,-2,i,-2.0,44,118
O=c1oc2ccccc2c(O)c1C(c1ccc([N+](=O)[O-])cc1)c1c(O)c2ccccc2oc1=O,0.91,98,-4,i,.,-39,146
O=[N+]([O-])/C(Cl)=C1\NCCN1Cc1ccc(Cl)nc1,0.92,103,-5,i,.,.,.
CC(C)(C)C(=O)NC1CCSC1=O (stereo not drawn),0.99,98,1,i,.,.,.
COc1ccc2c(c1)C13CCCC[C@@H]1C(C2)N(C)CC3 (stereo partly drawn),0.76,103,.,i,.,.,.
CC(C)N(CCC(C(N)=O)(c1ccccc1)c1ccccn1)C(C)C (stereo not drawn),0.91,98,8,i,-0.7,55,127
OC1/C(=C/c2ccccc2C(F)(F)F)N2CCC1CC2 (stereo not drawn),0.94,102,-5,i,.,5,108
CC(C)[C@H]1C(=O)O[C@H](C(C)C)C(=O)N(C)[C@@H](C(C)C)C(=O)O[C@H](C(C)C)C(=O)N(C)[C@@H](C(C)C)C(=O)O[C@H](C(C)C)C(=O)N1C,0.62,97,2,i,.,.,.
CN1C(=O)/C(=C/c2ccc(N3CCCCCC3)o2)C(=O)NC1=S,.,100,-6,?,-1.6,43,79
CCN(CC)C(=O)c1ccc(NC(=O)Nc2ccccc2F)cc1,0.74,102,-7,i,.,.,.
COc1cccc(N2C(=O)NC(=O)C3(Cc4cc(C)ccc4N(C)C3)C2=O)c1 (stereo not drawn),0.59,100,5,i,-0.8,11,65
NCCc1c[nH]c2ccc(OCc3ccccc3)cc12,0.89,98,.,i,.,.,.
COc1ccccc1N1CCNCC1,0.81,106,.,i,.,.,.
CCOC(=O)C1=C(N)OC2=C(C(=O)CCC2)C12C(=O)N(CC(N)=O)c1ccccc12 (stereo not drawn),1,74,-4,i,-2.5,26,182
COc1ccc(Cc2nccc3cc(OC)c(OC)cc23)cc1OC,0.89,109,-8,i,-0.3,-55,90
COc1ccccc1CN1CCN(C(=O)COc2ccccc2)CC1,0.92,154,-5,i,-1.4,-19,90
COc1ccc(-c2cc(=O)c3c(OC)c(OC)c(OC)cc3o2)cc1,0.91,100,7,i,.,.,.
CC1CCN(CC(=O)c2ccccc2Cl)CC1,0.94,102,1,i,0.0,.,.
O=C(OCC(=O)c1ccc([N+](=O)[O-])cc1)/C(=C/c1ccc(Cl)cc1)NC(=O)c1ccccc1,1,117,9,i,0.4,-6,67
O=c1c2ccccc2nc(-c2ccc(Cl)cc2Cl)n1-c1ccncc1,1.1,111,-4,i,0.9,-30,25

Four compounds drawn at random from the list so far, as already listed:
compound,HSV augment primary fold,RGS16-Gao,PKD1 inh,HSV augment,GALR2 agonist,Insulin prom inh,Insulin prom inh cell count
CC1CCN(CC(=O)c2ccccc2Cl)CC1,0.94,102,1,i,0.0,.,.
OC(CNC1CCCCC1)C(F)(F)F (stereo not drawn),1.2,89,14,i,.,7,143
COc1ccc2c(c1)C13CCCC[C@@H]1C(C2)N(C)CC3 (stereo partly drawn),0.76,103,.,i,.,.,.
CCCCn1c(O)c(C(CC)=NCCN2CCCCC2)c(=O)[nH]c1=O,0.82,102,-2,i,-1.1,-7,131

(list continues)
compound,HSV augment primary fold,RGS16-Gao,PKD1 inh,HSV augment,GALR2 agonist,Insulin prom inh,Insulin prom inh cell count
NNP(=O)(CC(=O)c1ccccc1)c1ccccc1 (stereo not drawn),1,97,.,i,.,.,.
Cc1ccsc1C(=O)C1CCCN(Cc2sc(N(C)C)nc2Cl)C1 (stereo not drawn),1,188,-3,i,.,.,.
CC(=O)NC(Cc1ccc(N(CCCl)CCCl)cc1)C(=O)NC(CC(C)C)C(=O)O (stereo not drawn),0.6,109,0,i,.,.,.
O=C1NC(=O)N(CCc2ccc(F)cc2)C(=O)/C1=C/C=C/c1ccccc1,0.69,91,.,i,.,.,.
CCCCCCn1c(O)c(C=NCCN2CCCCC2)c(=O)[nH]c1=O,0.93,101,-5,i,-0.7,-378,75
OC(Cn1c2ccccc2c2ccccc21)C[n+]1ccccc1 (stereo not drawn),0.85,93,-3,i,-2.9,.,.
O=C1NC(=O)N(c2ccccc2)C(=O)/C1=C\C=C\c1ccccc1,0.86,92,.,i,.,.,.
O=C(C[N+]12CCC(CC1)C(CO)C2)c1ccc([N+](=O)[O-])cc1 (stereo not drawn),1,104,-6,i,.,-47,95
CCC(=NCCN1CCCCC1)c1c(O)n(C)c(=O)n(C)c1=O,1.1,115,-8,i,-2.4,-367,51
CC(N=Cc1c(O)[nH]c(=O)[nH]c1=O)c1ccccc1 (stereo not drawn),0.93,107,-14,i,-0.9,.,.
Cc1c(C(=O)C(=O)N2CCC3(CC2)OCCO3)c2ccccc2n1C,1,98,0,i,.,58,125
CS(=O)(=O)NNP(=O)(NNS(C)(=O)=O)NC(=O)c1ccccc1,1.1,98,.,i,.,.,.
COc1cc(C=C2C(=O)NC(=O)NC2=O)cc(OC)c1OC,0.94,101,.,i,.,.,.
Cc1cc(C)cc(-n2c(O)c(C=Nc3ccc(N4CCOCC4)cc3)c(=O)[nH]c2=S)c1,0.89,105,-14,i,-3.3,6,119
O=C(Nc1ccccc1Cl)OC1CN2CCC1CC2 (stereo not drawn),0.95,97,.,i,.,.,.
CCOC(=O)C1C(=O)N(C)C2(C)CC1c1cc(OC)ccc1O2 (stereo not drawn),0.89,101,19,i,-2.8,.,.
O=C(CN1CCN(c2ccccc2F)CC1)Nc1cccnc1Cl,0.99,103,7,i,.,.,.
Fc1ccc(CCNCc2ccc(Br)cc2)cc1,0.87,91,-8,i,-1.0,-4,122
CCNc1cc(N2CCN(C)CC2)ccc1[N+](=O)[O-],0.98,95,-6,i,.,.,.
COCCOC(=O)C1=C(N)OC(C)=C(C(=O)OC)C12C(=O)Nc1ccccc12 (stereo not drawn),1.2,83,-3,i,-2.1,54,76
Cc1ccc(C(=O)N[C@@H](C)CN2C3=NC[C@H](Cc4ccccc4)N3C[C@H]2Cc2ccc(O)cc2)cc1Br,0.65,77,.,i,.,.,.
CCC(C)n1c(O)c(/C=N/Nc2nc3c(c(=O)n(C)c(=O)n3C)n2C)c(=O)[nH]c1=S (stereo not drawn),1.1,98,.,i,.,.,.
Cn1cc(C(=O)c2ccccc2)c2ccccc21,0.97,104,1,i,-1.3,.,.
CCC1(CCCC(=O)c2ccc(F)cc2)C(=O)NC(=S)NC1=O,1,114,-6,i,1.2,13,84
CN(CCc1nnc(N)s1)[N+](=O)[O-],0.98,102,-6,i,.,.,.
COc1cc(C)c(CN2CCN(c3ccccc3)CC2)cc1C,0.82,109,2,i,-0.6,.,.

A portion of the library; rates above refer to the full screens.
